Screening results as filed in PubChem.
Rce1 inhib: inhibitors of yeast Ras-converting enzyme | Q03530 | yeast membranes, quenched prenylated peptide cleavage fluorescence | calls only | 290,000 tested, 0.27% active;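 active = fall in fluorescence gain of 50% or more versus controls, with final raw signal at or below 3038400; inconclusive = same 50% fall but final raw signal above 3038400; inactive = fall in fluorescence gain under 50%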;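 note: plate controls were neutral control wells for no effect and wells lacking membranes for full effect; tested at 10 µM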
PABP FP inh: blocks human PABP binding to poly(A) RNA; P11940; fluorescence polarization; inhibition, % at 35 µM; 290,000 tested, 1% active;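 active = 50% or more with normal probe brightness, or confirmed in later tests; inconclusive = above 50% with abnormal brightness, or retests that disagree; inactive = below 50% or failed in later tests; about a fifth of its hits are not listed in these tables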;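 note: calls also rest on retests at 20 µM and on dose response follow-up; controls were probe without protein and protein plus probe with vehicle; some compounds called inactive have numbers as strong as hits; many hits fall short of the cut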
Target sequence (P11940 whole entry, looked up): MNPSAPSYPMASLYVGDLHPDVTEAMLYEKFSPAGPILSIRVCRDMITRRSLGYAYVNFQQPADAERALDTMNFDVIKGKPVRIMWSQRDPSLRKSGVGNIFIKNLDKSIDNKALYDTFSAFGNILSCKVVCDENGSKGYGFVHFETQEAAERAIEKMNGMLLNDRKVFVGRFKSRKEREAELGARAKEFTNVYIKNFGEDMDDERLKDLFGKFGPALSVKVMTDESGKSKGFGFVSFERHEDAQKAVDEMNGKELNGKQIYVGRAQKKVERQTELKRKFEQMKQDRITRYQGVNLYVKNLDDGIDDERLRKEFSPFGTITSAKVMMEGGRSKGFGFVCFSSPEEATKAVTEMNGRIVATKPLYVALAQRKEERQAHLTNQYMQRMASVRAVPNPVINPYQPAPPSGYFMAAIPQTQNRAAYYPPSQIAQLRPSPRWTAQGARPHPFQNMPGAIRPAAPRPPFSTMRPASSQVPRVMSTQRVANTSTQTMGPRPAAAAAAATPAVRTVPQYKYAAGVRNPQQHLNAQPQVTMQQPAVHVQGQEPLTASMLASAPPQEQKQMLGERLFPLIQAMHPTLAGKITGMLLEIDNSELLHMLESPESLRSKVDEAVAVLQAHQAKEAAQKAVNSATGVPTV
CSC inhib: blocks cancer stem cells; inhibition, % at 7.5 µM; AID 2717; cancer stem cell-like cells viability, luminescence; 300,000 tested, 1.1% active;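 active = mean at 75% or more and at least half the replicates too; inconclusive = mean and replicates disagree; tested in HMLE shEcad cells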;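 note: 0% = median of negative and 100% = median of positive control wells; the first replicate is given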
eIF4H FP inh: inhibitors of RNA binding by human eIF4H. Q15056. eIF4H fluorescence polarization binding assay. inhibition, % at 35 µM. 290,000 tested, 0.94% active. AID 2012;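 active = 50% or more with normal probe brightness, or confirmed in later tests; inconclusive = above 50% with abnormal brightness, or retests that disagree; inactive = below 50% or failed in later tests; about a fifth of its hits are not listed in these tables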;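 note: calls also rest on retests at 20 µM and on dose response follow-up; 0% = protein and probe with vehicle and 100% = probe without protein; strong numbers were not always called active; many hits fall short of the cut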
MT1-MMP act inh: blocks activation of human MT1-MMP. GFP/RFP ratio change, % at 20 µM. HT1080 RFP-PRO-GFP cells, GFP/RFP ratio fluorescence, overnight; percent of plate control window, DMSO zero. P50281. 360,000 tested, 0.061% active;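 active = GFP/RFP ratio change of at least 30% with cell ATP level not reduced by more than half and red fluorescence within 50% of control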; note: strong numbers were not always called active
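Test system: HT1080 cells expressing an RFP-PRO-GFP fluorescent reporter construct / Compound dosing: single-point 20 µM compound, 1% DMSO / Schedule: cells overnight before dosing, compound overnight, 37 °C, 5% CO2 / Evaluation: GFP/RFP fluorescence ratio / Control set: DMSO and RFP-L50D-GFP cell wells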
Yeast UUG start: alters start codon recognition fidelity in yeast. S. cerevisiae UUG-firefly luciferase reporter, luminescence/redox ratio. AID 602363. activity score, % at 18.7 µM. 350,000 tested, 0.13% active;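 active = replicate mean at a twofold rise or more, about +100% in these data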;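 note: firefly luciferase made from a UUG start codon reports start codon fidelity; reporter light over untreated wells divided by growth signal over untreated wells; some hits fall short of that in this replicate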
HIV Env fusion: inhibitors of HIV Env-mediated cell fusion. HeLa-JRFL Env/CEM21 cell fusion, luciferase. inhibition, % at 12.3 µM. 360,000 tested, 1.1% active;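 active = mean replicate inhibition score of at least 50 and every replicate individually at or above 50; inconclusive = only one of the two criteria met; inactive = mean below 50 and not all replicates reaching 50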;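 note: 0% = plate neutral controls and 100% = maraviroc near 300 nM; one replicate is shown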
MT1-MMP act inh RFP: second read-out of MT1-MMP act inh, no call of its own (marks repeat the call); RFP signal change, %; measured here: RFP expression control read;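 0 = vehicle wells; hits needed this value within 50% of zero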
* marks the source's active call; other numbers are inactive results; i = inactive; ? = inconclusive; . = no result given; & = joins results of further samples.

SMILES	Rce1 inhib	PABP FP inh	CSC inhib	eIF4H FP inh	MT1-MMP act inh	MT1-MMP act inh RFP	Yeast UUG start	HIV Env fusion
O=C(/C=C/Nc1ccc(F)cc1F)c1ccc(Br)cc1	i	.	10	.	-1	3	-18	-215
CCN(CC)S(=O)(=O)c1ccc2c(c1)N(CC(=O)N(CCc1ccncc1)C(C)C)C(=O)CO2	i	8	1	-3	-3	5	-9	-9
O=C(CN1CCN(c2ccccc2F)CC1)Nc1ccc2c(c1)CCC2	i	-2	4	1	-5	0	.	-4
CN(C)c1ccc(C(CNS(=O)(=O)c2cccc([N+](=O)[O-])c2)N2CCOCC2)cc1 (stereo not drawn)	i	.	2	.	3	1	0	27
O=C(Nc1cccc(NC(=O)c2sc3ccccc3c2Cl)c1)c1ccco1	i	6	31	-7	3	5	.	10
CCOC(=O)C1CCN(Cc2nnnn2CCc2ccccc2)CC1	.	0	1	7	-3	3	.	24
CCC1C(=O)NCCN1C(=O)c1cc(COc2cc(C)ccc2C)on1 (stereo not drawn)	i	-4	-1	-12	-3	-5	11	-2
C[C@@H]1CN([C@H](C)CO)C(=O)CCCn2nncc2CO[C@H]1CN(C)Cc1ccccc1	.	.	.	.	1	2	-5&2	-18
COc1ccc(C(=O)Nc2ccccc2N2CCOCC2)cc1S(=O)(=O)N1CCCC1	.	.	.	.	-3	4	14	-32
CCOc1ccccc1NC(=S)N1CCN(c2nc(-c3cccc(OC)c3)cs2)CC1	i	-8	0	-5	-4	-5	.	0
O=C(CSc1ccc(Br)cc1)NCC1(N2CCCCC2)CCCCC1	.	.	.	.	-3	1	-13	-7
Cc1nn(CCC(N)=O)c2nc(-c3cccs3)cc(C(F)(F)F)c12	i	0	1	4	-8	-1	.	.
Cn1cc(/C=C/C(=O)N2CCCC(C(=O)c3cccc4ccccc34)C2)cn1 (stereo not drawn)	i	-2	.	-9	2	2	1	-12
Cc1ccc(O)c(C(=O)CC(=O)c2ccc(Cl)cc2)c1	i	4	37	3	-12	-10	-18	-39
COc1ccc(N2C(=O)CSC2c2ccc3c(c2)OCO3)cc1 (stereo not drawn)	i	-5	-5	-10	1	1	7	-9
Clc1ccc(C(c2nnnn2C2CCCC2)N2CCN(c3nc4ccccc4s3)CC2)cc1 (stereo not drawn)	i	.	0	.	-1	-7	-21	-39
O=C(CCNS(=O)(=O)c1cccc2nsnc12)NC1CCCc2ccccc21 (stereo not drawn)	i	-5	-18	5	-8	-1	-24	-43
NS(=O)(=O)c1cccc(NC(=O)CSc2ncnc3ccccc23)c1	i	2	0	-6	-8	-8	.	20
COc1cccc(C(O)c2nccn2Cc2ccccc2)c1OC (stereo not drawn)	i	4	6	1	1	-2	-15	2
CC1(C)CSC(=NCCc2ccccc2)N1	i	0	-1	-12	-3	1	-11	0
CCC(C)[C@H](NC(=O)N1CC(=O)Nc2ccccc21)C(=O)N[C@@H](C(=O)O)c1ccccc1 (stereo partly drawn)	i	6	-5	-2	2	11	-3	-3
O=C(Cc1ccccc1)Nc1ccc2c(c1)CCC2	i	14	-8	1	2	4	.	-18
O=C(Cn1cc(C(F)(F)F)ccc1=O)N/N=C/c1ccc(O)cc1	i	0	-5	1	0	1	-8	5
O=C(Cc1nc(-c2cnccn2)no1)NNC(=O)Nc1ccccc1	i	4	-10	0	1	2	.	6
COC(=O)C(=C/C=C/c1cccnc1)C(=O)OC	i	0	9	-7	-3	3	-19	4
CC(C)(C)n1nnnc1C(c1ccc(F)cc1)N1CCC(C(N)=O)CC1 (stereo not drawn)	i	2	-3	-2	-2	4	.	11
CC(C)(C)c1cc(C(=O)N2CCN(c3ncccn3)CC2)ccn1	i	-6	8	-6	1	-3	-17	48
Cc1cc(CNC(=O)COc2ccc(F)cc2)c2ccccc2n1	i	-5	.	1	5	-4	-18	32
Cc1cccc(NC(=S)NC(=O)/C=C/c2ccccc2)n1	i	-4	-7	2	5	-1	-3	1
Cn1c(-c2ccco2)nc2cc3ccccc3cc21	?	4	-6	5	-3	-9	-59	i
Cc1cccc(C)c1NC(=O)CN1C(=O)N(C)Cc2ccccc21	.	-10	5	-9	3	6	-33	0
Cc1ccc(NC(=O)Cn2nc(C)cc2C)cc1	i	0	-11	-2	-1	0	-49	-9
CCOC(=O)C1=NNC(C(=O)c2ccc(C)cc2)C1c1ccc(C)cc1 (stereo not drawn)	i	3	7	-1	0	-2	-14	-7
CC1Cc2ccccc2N1C(=O)CNc1cccc(S(=O)(=O)N2CCCC2)c1 (stereo not drawn)	i	-7	-6	-1	2	2	-7	-25
COC(=O)C(CCSC)NC(=O)CNS(=O)(=O)c1ccc(F)cc1 (stereo not drawn)	i	-2	9	6	-3	6	-15	-67
COc1ccccc1C(=O)N1CC(=O)Nc2ccc(F)cc2C1c1ccccc1 (stereo not drawn)	i	4	1	-12	-1	2	-1	17

Six structures from above, sorted by SMILES length, rising:
SMILES	Rce1 inhib	PABP FP inh	CSC inhib	eIF4H FP inh	MT1-MMP act inh	MT1-MMP act inh RFP	Yeast UUG start	HIV Env fusion
Cc1ccc(NC(=O)Cn2nc(C)cc2C)cc1	i	0	-11	-2	-1	0	-49	-9
Cn1c(-c2ccco2)nc2cc3ccccc3cc21	?	4	-6	5	-3	-9	-59	i
Cc1cc(CNC(=O)COc2ccc(F)cc2)c2ccccc2n1	i	-5	.	1	5	-4	-18	32
CC(C)(C)c1cc(C(=O)N2CCN(c3ncccn3)CC2)ccn1	i	-6	8	-6	1	-3	-17	48
COC(=O)C(CCSC)NC(=O)CNS(=O)(=O)c1ccc(F)cc1 (stereo not drawn)	i	-2	9	6	-3	6	-15	-67
CCOC(=O)C1=NNC(C(=O)c2ccc(C)cc2)C1c1ccc(C)cc1 (stereo not drawn)	i	3	7	-1	0	-2	-14	-7

Following part:
SMILES	Rce1 inhib	PABP FP inh	CSC inhib	eIF4H FP inh	MT1-MMP act inh	MT1-MMP act inh RFP	Yeast UUG start	HIV Env fusion
CC(=O)NS(=O)(=O)c1ccc(NC(=S)NC(=O)Cc2ccccc2)cc1	i	4	-1	-3	-2	-3	-15	5
CCCOc1ccc(N2C(=O)C3C4C=CC(CC4)C3C2=O)cc1 (stereo not drawn)	i	8	31	-4	9	2	-5	11
O=C(c1ccc(CS(=O)(=O)c2ccc(Br)cc2)o1)N1CCCC1	i	6	-17	3	2	-1	-3	1
O=C(O)c1cccc(NC(=S)NCc2ccccc2)c1	i	4	-6	0	0	-1	-27	-9
CCCNC(=O)CN(c1cccc(F)c1)S(C)(=O)=O	i	-4	10	0	-4	3	-12	.
CC1(C)CC(=O)C2=C(C1)Nc1ccccc1N1C(=O)c3ccccc3C21 (stereo not drawn)	i	1	-14	-3	5	1	-8	.
COc1ccc(CN2CCN(CCc3ccccc3)C(CCO)C2)c(Cl)c1OC (stereo not drawn)	i	5	51	-4	2	-2	-15	0
COCCn1c(SC(C)C(=O)NCC2CCCO2)nc2sc3c(c2c1=O)CCC3 (stereo not drawn)	i	.	3	.	-1	-4	2	-15
CCOC(=O)C1=C(COC(=O)CCOc2ccc(OCC)cc2)NC(=O)NC1C (stereo not drawn)	.	.	.	.	6	4	-6	8
NC(=O)C1CCN(C(=O)CNC(=O)c2ccccc2)CC1	.	-6	-4	5	-4	-1	-23	-66
Cc1ccc2c(c1)C(O)(CC(=O)c1ccc3c(c1)OCO3)C(=O)N2 (stereo not drawn)	i	-13	1	7	3	9	-15	.
CSCCC(NC(=O)c1ccc(Cl)c([N+](=O)[O-])c1)C(=O)N1CCN(C/C=C/c2ccccc2)CC1 (stereo not drawn)	i	.	16	.	5	0	-3	-18
Cc1ccc(C(=O)NC(=S)NNS(=O)(=O)c2ccc(C)cc2)cc1	i	10	.	13	1	1	-12	.
CC1(C(=O)NS(=O)(=O)C2CC2)CCCN(C(=O)c2ccco2)C1 (stereo not drawn)	.	.	.	.	-1	-2	-23	-19
Cc1ccc(NC(=O)Nc2nnc(Cc3ccc([N+](=O)[O-])cc3)s2)cc1	i	-2	.	3	2	0	-12	.
CNC(=O)/C(C#N)=C/c1ccc(-c2ccccc2[N+](=O)[O-])o1	i	?	-8	?	-2	-2	.	-5
O=C(Nc1ncccc1O)c1ccc(Cl)c(S(=O)(=O)N2CCCC2)c1	.	.	.	.	4	1	-12	20
COC(=O)c1cc(-c2ccc(Br)cc2)n[nH]1	i	-3	-1	0	2	1	-9	.
Cn1ncc(SCc2ccccc2)c(Cl)c1=O	.	-2	-7	-7	-2	-30	-14	-13
CCOc1ccccc1NC(=O)CNC(=O)c1nn(-c2ccc(OC)c(OC)c2)c(=O)c2ccccc12	i	8	-2	-2	-2	-3	-4	8
CNC(=O)c1c(NC(=O)c2ccco2)sc(C)c1C	i	.	9	.	1	2	-6	.
O=C(NCc1cccc(F)c1)c1ccc(N2C(=O)Cn3c(cc4sccc43)C2=O)cc1	i	9	-5	3	1	-2	.	-3
COc1ccc(Cl)cc1NC(=O)CN(C)C(=O)C1COc2ccccc2O1 (stereo not drawn)	.	.	-10	.	3	-1	-19	9
COc1cc2c(cc1OC)C(C(=O)Nc1ccc(F)c(Cl)c1)CC(=O)N2 (stereo not drawn)	i	6	5	-8	1	-5	-17	-1
CCc1ccccc1NC(=O)Nc1ccc(F)cc1	i	-7	-5	-3	4	3	-13	-3
O=C(NCCCN1CCOCC1)c1cccc(NS(=O)(=O)c2ccc(Br)cc2)c1	.	.	.	.	2	5	-1	7
CC1CCCC(NC(=O)COC(=O)/C=C/c2ccc(F)cc2)C1C (stereo not drawn)	.	.	-19	.	-3	0	-11	.
N#CC1(Nc2ccccc2)C(=O)Nc2ccccc21 (stereo not drawn)	i	9	1	2	-3	4	-4	-9
O=C(O)CCCCCNc1nc(-c2ccccc2)nc2ccccc12	i	10	-2	12	-1	3	-9	9
O=C(NCC(=O)N1CCN(c2ccccc2)CC1)c1ccccc1	i	6	-5	-6	-4	-2	-5	15
COC(=O)c1ccc(COc2ccc(C=O)cc2)o1	i	12	-12	6	-1	1	-5	-7
O=C(NCCCn1cccn1)C1CCC(=O)N(CCc2ccccc2)C1 (stereo not drawn)	i	.	-5	.	-4	2	-12	0
CCOC(=O)N1CCN(Cc2c(F)cccc2Cl)CC1	i	1	-11	6	4	-3	11	18
O=C(CCc1ccccc1)N/N=C/c1cccc([N+](=O)[O-])c1	i	2	-1	-1	-3	-5	.	-4
CCN1CCN(CCOCCOc2ccccc2)CC1	.	8	9	11	1	3	-13	-37
Cc1ccc(C(C(=O)NC2CCCC2)N(C(=O)CCC(=O)Nc2cc(C)on2)c2ccccc2)cc1 (stereo not drawn)	i	-10	4	-9	-3	-2	.	-82
Cc1ccc(C)c(NS(=O)(=O)c2ccc(OCC(=O)N3CCCC3)cc2)c1	i	-4	-7	-11	0	-2	.	.
CN(C)CC1C2CCC(C2)C1O (stereo not drawn)	.	.	.	.	-1	3	-24	-10
CC(C)(C)C(C(=O)n1cccc1C#N)c1ccccc1 (stereo not drawn)	.	.	-6	.	1	2	-23	6
O=C(CCc1nc(-c2cccs2)no1)NCc1ccc(F)cc1Cl	i	4	-2	-3	4	3	-19	-20
COc1cc2c(cc1OC)C(C(=O)NC(C)c1ccccc1)CC(=O)N2 (stereo not drawn)	i	8	-2	-5	3	-1	-25	10
CC(Sc1ncccn1)C(=O)Nc1ccc2c(c1)OCO2 (stereo not drawn)	.	.	1	.	-1	2	-8	-9
COc1ccccc1C(O)(C(=O)NN(C(=O)c1ccccc1)c1ccccc1C)c1cccs1 (stereo not drawn)	.	-1	-12	-10	0	5	-44	.
